Source: PubChem (Broad Institute)
FGF22 binding: binders of recombinant human FGF22 by thermal shift. Q9HCT0. 340,000 tested, 1.5% active. calls only at 9.99 µM. SYPRO orange fluorescence; percent of sucrose octasulfate shift, DMSO zero;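 active means melting point raised past a set limit in the mean and every replicate; inconclusive means no clear call; three in four hits are not shown here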
Target sequence (Q9HCT0 whole entry, looked up): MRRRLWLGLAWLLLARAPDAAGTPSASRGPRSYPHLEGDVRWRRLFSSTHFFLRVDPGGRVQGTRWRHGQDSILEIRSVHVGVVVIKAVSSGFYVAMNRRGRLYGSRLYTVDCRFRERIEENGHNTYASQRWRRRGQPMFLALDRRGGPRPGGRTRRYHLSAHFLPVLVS
Ecoli rRNA inh: inhibits bacterial ribosomal RNA function over humanized ribosomes. E. coli WT GFP vs humanized-ribosome RFP mutants, fluorescence, 24 h; hits give low values; DMSO median 0, no signal -100. GFP signal change (wild-type ribosome), % (concentration not given with the values). 350,000 tested, 1.6% active. AID 720706;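 active means significant combined selectivity score with lowered wild-type GFP, culture density cut under 30%, mutant RFP and density less affected; inactive means any of these conditions unmet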; further: one replicate is shown; some compounds called inactive have numbers as strong as hits
RanGTP-Imp inh: disruptors of Ran-importin-beta complex formation – biochemical, FRET, CFP-Ran, YFP-importin-beta, homogeneous, primary screen | 300,000 tested, 1.1% active | inhibition, % (concentration not given with the values) | cell-free CFP-Ran/YFP-importin-beta FRET ratio;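 active means most replicates above 15%; inconclusive means exactly half above 15%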;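 further: 0% = DMSO wells and 100% = Ran loaded with GDP instead of GTP; wells of about 40 µL received 100 nL stock; the first replicate is given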
ALR H2O2 inh: human ALR oxidase inhibition via reduced H2O2; P55789; purified ALR, DTT oxidation, H2O2 HRP-luminol luminescence; inhibition, % (test concentration not listed); 290,000 tested, 3.8% active;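 active means mean and each replicate at 75% or more; inconclusive means only one of the two met; inactive means neither met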;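 further: stock transfer was 7.5 nL into about 7.5 µL; 0% = neutral wells and 100% = wells with inactivated enzyme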
Target sequence (P55789 whole entry, looked up): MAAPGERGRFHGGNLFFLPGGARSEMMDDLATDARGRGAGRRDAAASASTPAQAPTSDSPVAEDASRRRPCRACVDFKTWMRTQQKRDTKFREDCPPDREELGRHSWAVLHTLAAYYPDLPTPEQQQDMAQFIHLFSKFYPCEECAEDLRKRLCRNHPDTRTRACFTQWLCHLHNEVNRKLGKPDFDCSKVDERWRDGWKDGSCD
Beta cell apopt: beta cell apoptosis inhibition | INS-1E cytokine-induced death, ATP luminescence, 48 h; percent of positive-control rescue, neutral wells zero | protection from apoptosis, % (test concentration not listed) | 300,000 tested, 0.8% active;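 active means all replicates at 75% or more, or half of them and the mean; inconclusive means half reach 75% but not the mean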;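 further: 0% = cytokine-treated negative control wells and 100% = positive control rescue; higher means more ATP so stronger rescue from cytokine killing; wells of about 40 µL received 100 nL stock; the first replicate is given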
MLL AF4-AF9 inh: MLL-AF4/AF9 protein interaction inhibition. inhibition, % at 10 µM. P42568. 350,000 tested, 0.47% active. AlphaScreen, biotin-AF4 peptide binding to FLAG-AF9;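 active means every replicate reaching a set inhibition limit, whatever the replicate mean, cut at about 25% in these data; inconclusive means mean inhibition reaches that limit but some replicates miss it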;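 further: 0% = plate neutral control median and 100% = total signal loss; the record names both 10 and 1 µM as test concentration; the first replicate is given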
Target sequence (P42568 whole entry, looked up): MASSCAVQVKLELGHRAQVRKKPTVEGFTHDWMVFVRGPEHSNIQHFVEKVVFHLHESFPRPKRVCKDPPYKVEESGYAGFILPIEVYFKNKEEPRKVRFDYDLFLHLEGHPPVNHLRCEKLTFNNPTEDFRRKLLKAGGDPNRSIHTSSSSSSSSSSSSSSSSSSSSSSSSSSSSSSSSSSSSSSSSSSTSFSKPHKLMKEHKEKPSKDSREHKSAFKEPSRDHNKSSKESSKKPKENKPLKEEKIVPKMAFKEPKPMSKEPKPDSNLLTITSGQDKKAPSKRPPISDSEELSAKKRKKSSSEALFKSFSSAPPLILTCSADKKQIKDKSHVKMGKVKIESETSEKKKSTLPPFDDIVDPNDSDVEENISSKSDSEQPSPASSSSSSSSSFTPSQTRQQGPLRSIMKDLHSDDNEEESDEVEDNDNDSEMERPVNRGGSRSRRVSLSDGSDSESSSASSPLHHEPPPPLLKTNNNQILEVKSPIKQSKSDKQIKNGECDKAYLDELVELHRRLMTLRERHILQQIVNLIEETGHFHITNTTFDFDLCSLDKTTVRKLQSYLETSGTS
Calb FLC: C. albicans growth modulation with fluconazole; C. albicans CaCi-2 (fluconazole-resistant clinical isolate) + fluconazole, Alamar Blue growth, 48 h; growth inhibition, % (concentration not given with the values); 300,000 tested, 0.57% active;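 active means most replicates above 75%; inconclusive means exactly half above 75%; inactive means most below 75%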;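 further: all wells also contain fluconazole at 8 µg/ml as a sub-toxic cotreatment; 0% = median of DMSO wells and 100% = median of geldanamycin control wells; wells of about 8 µL received 7.5 nL stock; the first replicate is given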
T cruzi inh: blocks replication of Trypanosoma cruzi | T. cruzi beta-gal in NIH3T3, luminescence, 90 h | inhibition, % (concentration not given with the values) | 300,000 tested, 1.4% active | AID 1885;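 active means mean inhibition across valid replicates above about 55%, limit read from the data; inconclusive means mean below that limit but half or more replicates reach it; inactive means mean below it, under half of replicates reach it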;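 further: signal also drops with host cell toxicity which is not excluded here; 0% = plate median of DMSO wells and 100% = zero luminescence signal; higher percent means less beta-gal luminescence so fewer parasites; stock transfer was 50 nL into about 50 µL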
Ecoli rRNA inh OD600: further read-out of Ecoli rRNA inh, marked with its call; OD600 change, %; measured here: OD600 growth;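 optical density of the mix in the first replicate; 0 = DMSO median and -100 = no signal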
Ecoli rRNA inh RFP: also measured in Ecoli rRNA inh; calls as there; RFP signal change, %; measured here: RFP humanized mutant strains;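 first replicate; 0 = DMSO median and -100 = no signal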
Active calls of the source: *; i = inactive; u = inconclusive; x = not tested or not shown.

SMILES	FGF22 binding	Ecoli rRNA inh	Ecoli rRNA inh OD600	Ecoli rRNA inh RFP	RanGTP-Imp inh	ALR H2O2 inh	Beta cell apopt	MLL AF4-AF9 inh	Calb FLC	T cruzi inh
Cc1nc(NC(=O)c2cccs2)ccc1Br	i	-27	-40	4.0	1.9	5	5	0.4	10	-13
O=[N+]([O-])c1cnn(-c2nc(-c3cccs3)cc(C(F)(F)F)n2)c1	i	3	2	1.7	-1.7	-8	-2	1.3	2	5
Cc1ccc(N2CC(C(=O)NC3CCSC3=O)CC2=O)cc1 (stereo not drawn)	x	x	x	x	x	27	-1	x	-19	3
CCOc1ccccc1C(=O)NCC(=O)NCC1CCCCC1	i	-1	10	-0.4	3.7	0	-9	-2.1	9	17
CSc1ccccc1OCc1cc(C(=O)NCCCc2ccccc2)no1	i	9	10	0.5	-4.0	-3	1	-1.3	3	-11
C=CCN1CC2(c3ccccc3)CN(CC=C)CC(c3ccccc3)(C1)C2=O	i	3	2	-1.9	4.0	0	-6	-3.8	-2	-33
O=C(Nc1cc(Cl)ccc1Cl)Nn1cnnc1	i	12	12	-0.1	-0.3	-9	-4	2.3	32	-10
CN1CCN(C(=O)CCNC(=O)Cn2cnc3ccccc3c2=O)CC1	i	7	17	0.3	-1.0	1	1	1.1	6	-5
C=CCn1c(C)cc(C(=O)CN2NS(=O)(=O)c3ccccc3C2=O)c1C	i	9	6	4.5	5.5	7	31	7.5	0	-4
CC(C)N(Cc1nc(-c2ccc(Cl)cc2)no1)C(=O)C12CC3CC(CC(C3)C1)C2	x	x	x	x	4.3	3	-2	x	4	-4
CCCCC(=O)N/N=C/c1ccc(Sc2cccc3cccnc23)o1	x	x	x	x	-2.3	4	39	x	1	6
O=C(O)c1cccc2c1C(=O)c1ccccc1-2	i	1	-2	3.3	u	-68	x	0.5	-2	-18
Cc1ccc(/C=N/NC(=O)CNC(=O)c2ccc(S(=O)(=O)N(C)C)cc2)o1	i	14	10	3.3	5.0	-7	-5	1.3	-3	-9
CCCN1C(=O)C(O)(CC(=O)c2ccc3c(c2)OCCO3)c2ccccc21 (stereo not drawn)	x	x	x	x	1.1	-1	x	x	-10	4
Cc1c(Cc2ccccc2)c(=O)oc2cc(OCc3ccc(C(=O)O)cc3)ccc12	i	-3	-4	-1.6	2.7	10	-2	-2.4	-4	-17
CC(=O)Nc1ccc(S(=O)(=O)N2CCc3cc4c(cc3C2)OCCCO4)cc1	i	-1	16	1.1	2.8	-2	3	1.4	-16	-3
Cc1nc(N)sc1N=Nc1ccccc1C(F)(F)F	i	-58	-78	-19	5.7	27	1	13	1	22
Cc1[nH]c2ccccc2c1C1=NNC(=Nc2ccc(F)cc2)SC1	i	9	17	7.2	x	-11	10	8.3	x	7
COc1cccc(-c2nc(CS(=O)(=O)CC(=O)Nc3cccc(C)c3C)c(C)o2)c1	i	4	5	-4.8	u	51	-4	3.6	-3	1
COc1cccc(/C=N/n2cnnc2)c1OCc1ccccc1	x	x	x	x	0.8	4	-1	x	-5	3
COc1cc(OC)c(OC)cc1/C=N/NC(=O)CCc1c(C)n[nH]c1C	i	15	12	5.8	-0.9	-8	-2	-0.9	-2	-8
CC(C)(C)c1ccc(NC(=O)COC(=O)c2ccc(NS(=O)(=O)c3ccc(F)c(F)c3)cc2)cc1	x	x	x	x	0.7	-1	-7	x	48	8
Cc1ccccc1NC(=O)C1CC(=O)OC12CCOC(C)(C)C2 (stereo not drawn)	i	14	4	-4.4	-1.5	-7	-5	-0.1	-3	-16
CCCOc1ccc(C(=O)NC2CCSc3ccccc32)cc1 (stereo not drawn)	i	6	12	1.4	0.3	-16	6	-2.7	10	-6
O=C(CCCCCNC(=O)N1CCn2c1nc1ccccc12)N[C@H](Cc1ccccc1)C(=O)O	i	x	x	x	-0.7	-12	x	-11	-12	-10
Cc1ccc(S(=O)(=O)N2c3ccccc3OCC2C(C)(C)C)cc1 (stereo not drawn)	x	x	x	x	4.0	-4	x	x	3	29
Cc1oc(C(C)(C)C)cc1C(=O)NC(Cc1ccccc1)C(=O)O (stereo not drawn)	i	4	1	-2.7	4.2	x	-6	-1.0	-1	36
Nc1nc(-c2c[nH]c3ccccc23)cs1	x	x	x	x	2.1	87*	-5	x	17	1
Cn1cc([N+](=O)[O-])c(C(=O)NCC(=O)O)n1	i	x	x	x	1.0	17	-5	-1.3	-3	-7
Cc1ccccc1NC(NC(=O)OCCn1c([N+](=O)[O-])cnc1C)C(Cl)(Cl)Cl (stereo not drawn)	i	x	x	x	3.9	-4	-5	2.3	13	-4
Cc1cccc(C)c1NC(=O)N1CCC(n2c(=O)[nH]c3ccccc32)CC1	i	5	-6	1.1	-4.9	-5	-6	2.1	-2	0
CC[C@]12c3[nH]c4ccccc4c3CCN1C(=O)C(CC(=O)NCCC1=CCCCC1)C[C@@H]2C(=O)N1CCN(C(=O)c2ccco2)CC1 (stereo partly drawn)	i	-15	-17	6.7	x	x	-7	1.0	x	x
CC(=O)OC1CCC2(C)C(CCC3C2CC(OC(C)=O)C2(C)C3C[C@@H]3O[C@]4(CC[C@@H](C)CO4)[C@@H](C)C32)C1 (stereo partly drawn)	x	x	x	x	1.3	x	-8	x	0	-12
CCCC(=O)NC(=S)Nc1ccc(S(=O)(=O)N2CCc3ccccc32)cc1	i	-8	-17	0.1	-1.7	-24	-6	-0.7	15	25
CC(=O)Nc1ccc(NC(=O)C(C)Oc2ccccc2C(=O)NCc2ccccc2)cc1 (stereo not drawn)	i	1	-4	-2.7	x	-2	-11	-4.4	x	x
COc1ccc(/C=C(\C#N)C(=O)OCC(=O)NCc2ccc(Cl)cc2)cc1	x	x	x	x	4.4	-3	x	x	15	3
CN(C)/C=C(/C(=O)c1ccccc1)n1cncn1	i	4	12	1.3	-0.6	-3	-4	-0.6	3	0
COc1cc(/C=C2\N=C3CCCCCN3C2=O)ccc1O	i	-9	-3	-4.2	-5.8	99*	-7	15	3	1
CCOc1ccc(OCC)c(NC(=O)C2CCN(c3cnccn3)CC2)c1	i	-4	-6	1.4	0.6	-4	-5	5.6	3	14
CNc1nnc(-c2cccc(N(C)C)c2)s1	x	x	x	x	-7.1	99*	0	x	8	-5
COc1ccc(C(=O)Nc2nnc(C3=COCCO3)o2)cc1OC	i	3	-1	-1.8	x	-4	-3	-0.8	x	0
O=C(Nc1ccccc1)N(C1=NCCCCS1)c1cccc2ccccc12	x	x	x	x	-1.6	-18	x	x	-9	-14
Cc1ccccc1CN1CCN(S(=O)(=O)c2ccc(Cl)s2)CC1	i	-6	-17	1.6	0.5	-4	20	-0.6	-2	28
CCc1ccc(Nc2ncccc2C#N)cc1	x	x	x	x	-1.4	1	-9	x	-21	-13
CC(C)CCNC(=O)C12CN(Cc3ccccc3)CC1C(c1ccc([N+](=O)[O-])cc1)=NO2 (stereo not drawn)	i	6	5	0.6	-5.0	-1	-1	12	-14	18
O=C(/C=C/c1ccco1)NC(=S)Nc1cccc(-c2nc3ccccc3o2)c1	x	x	x	x	-3.5	-10	7	x	3	-48
Cc1nn(CC(=O)N2CCc3ccccc32)c(C)c1S(=O)(=O)NC(C)(C)C	i	6	-10	5.1	x	-16	5	-2.7	x	x
COc1ccc(C2=NS(=O)(=O)N(C)C(C(=O)NCc3ccco3)=C2)cc1OC	i	2	-4	-3.9	-1.9	-3	-2	6.8	0	4
COc1ccccc1CN(C)C(=O)COC(=O)c1ccc(Cl)nc1	i	-7	-3	3.2	x	-1	-2	-2.0	x	x
CN1CCN(C(=S)NC(=O)c2ccc(Cl)cc2)CC1	i	1	-4	0.1	1.5	x	x	-5.1	u	-6
COCC(C)n1c(SC(C)C(=O)NC2CCCCC2C)nc2ccccc2c1=O (stereo not drawn)	i	8	10	-1.2	-0.8	-1	x	-0.6	4	-6
CCCCNC(=O)C1(O)c2cc(Br)ccc2NC(=O)N1c1cccc(OC)c1 (stereo not drawn)	i	2	-1	1.0	-2.4	-17	-3	2.1	9	-15
Cc1c(C(=O)Nc2cccc([N+](=O)[O-])c2)sc2ncn(CC(=O)N3CCOCC3)c(=O)c12	i	-9	8	0.6	0.9	-8	-3	-1.3	1	-10
Cc1ccc(S(=O)(=O)CCC(=O)OCC(=O)NCCc2ccccc2)cc1	i	9	3	0.3	u	x	-6	-4.7	-4	-11
C[N+]1(C)CCCC(OC(=O)C(O)(c2ccccc2)c2ccccc2)C1 (stereo not drawn)	i	5	3	-0.6	-7.0	-21	-10	7.5	-10	-7
COc1ccc(CNC(=O)C2CCN(S(=O)(=O)N3CCCC3)CC2)cc1	i	12	10	5.1	0.7	-6	-7	-0.5	-4	-12
COc1ccc(-n2nc(C(=O)NCC(=O)Nc3cccc(Cl)c3)c3ccccc3c2=O)cc1OC	i	10	17	-1.3	2.6	x	10	-1.4	32	30
CCOC(=O)Cc1nn2c(=O)cc(C)nc2s1	x	x	x	x	u	93*	-1	x	-2	-20
CCN1CCc2c(OCC(=O)N3CCc4ccccc43)cccc2C1=O	i	-9	-9	-5.4	0.2	0	1	-1.3	17	9
CC1CN(C(=O)c2cccc(S(=O)(=O)N3CCN(c4ccccc4)CC3)c2)CC(C)O1 (stereo not drawn)	i	2	-11	2.8	x	7	-2	0.9	x	x

Limited to ALR H2O2 inh, Ecoli rRNA inh and Beta cell apopt, for some of the entries so far:
Structure | ALR H2O2 inh | Ecoli rRNA inh | Beta cell apopt
O=C(/C=C/c1ccco1)NC(=S)Nc1cccc(-c2nc3ccccc3o2)c1 | -10 | x | 7
Cc1ccc(S(=O)(=O)CCC(=O)OCC(=O)NCCc2ccccc2)cc1 | x | 9 | -6
CC1CN(C(=O)c2cccc(S(=O)(=O)N3CCN(c4ccccc4)CC3)c2)CC(C)O1 (stereo not drawn) | 7 | 2 | -2

Further compounds follow:
SMILES	FGF22 binding	Ecoli rRNA inh	Ecoli rRNA inh OD600	Ecoli rRNA inh RFP	RanGTP-Imp inh	ALR H2O2 inh	Beta cell apopt	MLL AF4-AF9 inh	Calb FLC	T cruzi inh
CCOC(=O)N1CCN(CC(=O)Nc2nc3ccccc3s2)CC1	i	-1	-2	-1.0	1.3	-7	x	-0.2	1	-4
Clc1ccc(CSc2nnc(/C=C/c3ccccc3)o2)c(Cl)c1	x	x	x	x	-1.0	x	-4	x	16	3
C=CCN(c1ccc(OC)cc1)S(=O)(=O)c1ccc(Cl)c(C(=O)OCC(=O)NC2CC2)c1	i	-24	-34	-1.7	5.4	-24	-2	-12	-11	11
Cc1ccc2c(CC(=O)N(CC3CCCO3)c3c(N)n(Cc4ccccc4)c(=O)[nH]c3=O)coc2c1 (stereo not drawn)	i	7	2	0.4	x	-3	-9	-0.5	-1	-3
O=[N+]([O-])/C=C/c1cn(Cc2ccc(F)cc2)c2ccccc12	x	x	x	x	0.3	9	78*	x	-21	1
O=C(O)C1=C(C(=O)Nc2cc(C(F)(F)F)ccc2Cl)CCCC1	i	18	17	-1.7	5.2	6	1	1.4	-5	-4

An excerpt. The share of hits here may be higher or lower than overall.
